# Vaccinia mCherry – inhibitors of vaccinia virus infection (mCherry reporter signal); Vaccinia virus mCherry reporter infection, fluorescence; about a quarter of the inactives have no number; Potency, µM (top dose mostly 36.5 µM), for inactives: at the highest dose activity change, negative = inhibition, usual class: inhibitors; 310,000 tested, 0.63% active; AID 720579; active = well fitted inhibition curve with a large enough effect; inconclusive = small, poorly fitted or top-dose-only effect; inactive = no such curve, though single readings can be large or run the other way; tested in A549 cells; note: nearly all actives have a fitted effect of over 35% in size; inactives centre near -10
# Vaccinia Venus – inhibitors of vaccinia virus (Venus reporter); Vaccinia virus Venus reporter expression, fluorescence; Potency, µM (highest dose often 36.5 µM), for the others: top-dose activity change, negative = inhibition, usual class: inhibitors; 330,000 tested, 0.46% active; active means well fitted inhibition curve with a large enough effect; inconclusive means small, poorly fitted or top-dose-only effect; inactive means no such curve, though single readings can be large or run the other way; tested in A549 cells; note: nearly all actives have a fitted effect of over 30% in size; inactives centre near -10
# Numbers without * were called inactive; i = inactive; u = inconclusive; x = not tested or not shown; [ ] = another dose, or the depositor's remark. % is set by controls: 0 for no effect and ±100 for the full control effect; potency is the fitted concentration of half-maximal effect.
SMILES,Vaccinia mCherry,Vaccinia Venus
C[C@]12CC[C@H](O)CC1=CCC1C2CC[C@@]2(C)C1CC[C@@H]2NC(=O)[C@@H](N)Cc1ccccc1 (some centres undefined),-22%,-21%
Fc1ccc(Nc2nc(NCc3cccs3)nc3ccsc23)cc1,-7%,-23%
CCOC(=O)[C@H]1[C@H]2COc3ccc(Br)cc3[C@@H]2N2C(=O)c3ccc(F)cc3NC(=O)[C@@]12C,i,-22%
N#CCCN(CCC#N)C(=O)c1ccc(Cl)cc1,-10%,-1%
O=C1c2ccccc2C(=O)C1C(=O)C1CC1,i,0%
Cc1ccc(N2CC(C(=O)NCCC3=CCCCC3)CC2=O)cc1 (centres undefined),i,-14%
O=C(O)CCCCCN1C(=O)/C(=C/c2ccncc2)SC1=S,-2%,-19%
N#Cc1cccnc1N1CCN(C(C(=O)NC2CCCC2)c2ccc(F)cc2)CC1 (centres undefined),3%,-6%
CCOC(=O)C1=CN(Cc2ccco2)S(=O)(=O)N(CC)C1c1cccc(OC)c1 (centres undefined),-23%,u
Cc1cc(=O)oc2cc(OCC(=O)NC3(C#N)CCCCC3)c(Cl)cc12,-7%,-6%
CN1CCN(c2nc(-c3cccc([N+](=O)[O-])c3)nc3ccccc23)CC1,-7%,-14%
COc1cc(NC(=O)CSCc2cnn(-c3ccccc3)c2-n2cccc2)cc(OC)c1,-28%,-20%
COCCNC(=S)N1CCC(NC(=O)C23CC4CC(CC(C4)C2)C3)CC1,i,-5%
COc1ccc(NC(=O)Cn2c(=O)c3cccn3c3ccccc32)cc1,1%,-4%
CC(/C=N/NC(=O)C(O)c1ccccc1)=C\c1ccccc1 (centres undefined),-5%,-10%

# Seven compounds out of the list, sorted by molecular weight, descending.
SMILES,Vaccinia mCherry,Vaccinia Venus
C[C@]12CC[C@H](O)CC1=CCC1C2CC[C@@]2(C)C1CC[C@@H]2NC(=O)[C@@H](N)Cc1ccccc1 (some centres undefined),-22%,-21%
CCOC(=O)C1=CN(Cc2ccco2)S(=O)(=O)N(CC)C1c1cccc(OC)c1 (centres undefined),-23%,u
COCCNC(=S)N1CCC(NC(=O)C23CC4CC(CC(C4)C2)C3)CC1,i,-5%
O=C(O)CCCCCN1C(=O)/C(=C/c2ccncc2)SC1=S,-2%,-19%
Cc1ccc(N2CC(C(=O)NCCC3=CCCCC3)CC2=O)cc1 (centres undefined),i,-14%
CC(/C=N/NC(=O)C(O)c1ccccc1)=C\c1ccccc1 (centres undefined),-5%,-10%
O=C1c2ccccc2C(=O)C1C(=O)C1CC1,i,0%

# (further entries)
SMILES,Vaccinia mCherry,Vaccinia Venus
CCNC(=O)COC(=O)CNC(=O)c1cc(Cl)cc([N+](=O)[O-])c1,-9%,-2%
Cc1cn(CC2COC(C)(C)O2)c(=O)[nH]c1=O (centres undefined),-17%,-9%
Cc1ccc(O)c(N=Cc2cccs2)c1,-1%,9%
Cc1cccc(CN2CCN([C@H]3CS(=O)(=O)N[C@@H]3COCc3ccccc3)CC2)c1,i,-1%
COc1ccc(NC(=O)CCNC(=O)c2ccccc2Cl)cc1S(=O)(=O)N1CCCCC1,i,-9%
N/N=C(\Cc1cscn1)c1ccc(O)cc1O,-17%,-6%
C[C@H](O)[C@@H]1C(=O)N2CCc3ccc(N4CCN(C)CC4)cc3[C@@H]2C[C@@H]1N(C)C(=O)Nc1cc(Cl)cc(Cl)c1,u,-12%
CN(C(=O)CN1C(=O)NC2(CCc3ccccc32)C1=O)C1CCCCC1 (centres undefined),i,-4%
COc1ccccc1C(C)NC(=O)c1ccc(C)o1 (centres undefined),x,u
Cn1c(SCc2ccccc2Cl)nc2c1c(=O)[nH]c(=O)n2C,i,-2%
O=C(Nc1cccnc1)c1cnn2cccnc12,-1%,-9%
O=P(COCCOCCOCP(=O)(c1ccccc1)c1ccccc1)(c1ccccc1)c1ccccc1,-1%,-2%
Cc1cc(C)n2nc(C(=O)OCC(=O)c3ccccc3Cl)nc2n1,-9%,-2%
C[C@@H]1CN([C@H](C)CO)C(=O)CCCn2cc(nn2)CO[C@H]1CN(C)S(=O)(=O)c1ccccc1F,11%,-1%
CC(CCc1ccco1)NC(=O)Cn1ncc2c(=O)oc3ccccc3c21 (centres undefined),i,-3%
COc1ccc(NC(=S)NC2CC3CCC2C3)c(OC)c1 (centres undefined),i,-23%
Cc1nn(Cc2ccc([N+](=O)[O-])cc2)c(=O)n1-c1cccc(Cl)c1,-6%,-7%
O=C(Nc1nnc(S(=O)(=O)N2CCc3ccccc32)s1)c1ccccc1Cl,-17%,-13%
CC1=C(C(=O)N2CCCCCC2)CC(CC(=O)NC(c2ccccc2)c2ccccc2)C(=O)N1CCC1=CCCCC1 (centres undefined),-11%,-20%
CC(C)=C1C2CC2C2C(C(=O)O)C12 (centres undefined),x,-7%
CCCCN1C(=O)C(=O)NC[C@@H]1CC1CCCCC1,0%,-8%
COc1ccc(-n2c(=O)c3c(c4cc(OC)ccc4n3C)n(C)c2=O)cc1,-6%,-1%
O=C1C=C(c2ccc3c(c2)OCCO3)C[C@@H](c2ccc(F)cc2)C1,i,-4%
CCN(Cc1ccncc1)Cc1nc(-c2ccc(C(=O)OC)cc2)no1,i,-5%
Cc1csc2c(N3CCN(C(=S)Nc4ccc(F)cc4F)CC3)ncnc12,-18%,u
CCc1nc2ccc(C(=O)Nc3cccc(OC)c3)cn2c1N(C)Cc1ccc(OC)cc1,u,-23%
CCOC(=O)C1CCCN(CCC(=O)Nc2cc(C)ccc2C)C1 (centres undefined),-9%,-3%
CCOC(=O)CN1C(=O)N2C[C@H]3CON(C)[C@H]3C[C@H]2c2ccccc21,i,2%
CNC(=S)NNC(=O)c1cccs1,i[7.34 µM],-15%[7.34 µM]
COc1ccccc1-c1noc2c1C(=O)N(C(=O)OC(C)(C)C)CC2,i,-8%
COc1cccc(NC(=O)N2CCCC2C(=O)Nc2cc(C)ccc2OC)c1 (centres undefined),13%,-2%
COC(=O)C1=C(c2ccc(S(C)(=O)=O)cc2)C[C@@H]2CC[C@H]1N2C(=O)NCc1ccccc1,i,0%
CCOc1n[nH]c(-c2ccccc2)n1,-12%,-16%
O=C(COC(=O)c1cnccn1)NC(=O)c1ccccc1,-5%,1%
COc1ccc(/C=C/C(=O)O)cc1S(=O)(=O)NCc1cccnc1,i,-10%
Oc1c(CN2CCOCC2)cc(COCc2ccccc2)c2cccnc12,7.1µM*,u
CCOC(=O)/C(=N\Nc1ccccc1Cl)N(C)C1CCS(=O)(=O)C1 (centres undefined),-20%,-1%
CCOc1cc(-c2cc(-c3ccc(N)cc3)nc(N)c2C#N)ccc1O,-22%,-20%
CCOc1ccc(C(=O)c2c(N)c(-c3nc(-c4ccc(OCC)cc4)cs3)c3ccccn23)cc1,-2%,6%
COc1ccccc1C(=O)Nc1nc2cc3c(cc2s1)OCO3,-9%,-3%
COc1ccc(CCNC(=O)CNC(=O)Cn2cnc3sc(C)c(C)c3c2=O)cc1OC,i,-22%
COC(=O)C1=C(C)N(CCCC(=O)O)C(=O)NC1c1ccc([N+](=O)[O-])cc1 (centres undefined),0%,-2%
Cc1ccc(NC(=O)CCCn2c(=O)c3cccn3c3cccnc32)c(Cl)c1,-18%,-10%
CCN(CC)Cc1c(C(=O)N/N=C(\C)c2ccncc2)nnn1-c1nonc1N,-4%,-10%
CC1(C(=O)Nc2ccc3c(c2)OCCO3)CN(S(C)(=O)=O)CC(=O)N1Cc1ccco1 (centres undefined),i,-8%

# Rewritten with two lines to a compound: entries from further up
# Screens in order: Vaccinia mCherry	Vaccinia Venus
COc1cccc(NC(=O)N2CCCC2C(=O)Nc2cc(C)ccc2OC)c1 (centres undefined)
  13%	-2%
COC(=O)C1=C(c2ccc(S(C)(=O)=O)cc2)C[C@@H]2CC[C@H]1N2C(=O)NCc1ccccc1
  i	0%
CCOc1n[nH]c(-c2ccccc2)n1
  -12%	-16%
O=C(COC(=O)c1cnccn1)NC(=O)c1ccccc1
  -5%	1%
COc1ccc(/C=C/C(=O)O)cc1S(=O)(=O)NCc1cccnc1
  i	-10%

# Continuation:
SMILES,Vaccinia mCherry,Vaccinia Venus
Cc1onc(-c2ccccc2Cl)c1C(=O)NCC1CCCO1 (centres undefined),-13%,-1%
O=C(NNc1cc(N2CCOCC2)nc(N2CCOCC2)n1)c1ccc(Cl)c(Cl)c1,u,-12%
COc1ccc(NC(=O)CCN2C(=O)C3CC=CCC3C2=O)cc1S(=O)(=O)N1CCCCC1 (centres undefined),-14%,-4%
Cc1nnc(SCC(=O)Nc2cc(S(C)(=O)=O)ccc2Cl)n1Cc1ccccc1,-9%,4%
CCCCn1c(N)c(N(CC(C)C)C(=O)C2CCN(C(=O)c3ccc(Cl)cc3)CC2)c(=O)[nH]c1=O,-10%,-5%
Cc1cccc(OCCCC(=O)Nc2ccc3c(c2)OCO3)c1,-2%,-2%
C/C(=N\NC(=S)Nc1ccc(C)cc1)c1cc2ccccc2o1,-4%,-3%
COC(=O)c1[nH]c2ccccc2c1NC(=O)CN1CC(C)OC(C)C1 (centres undefined),x,-4%
O=C(/C=C/c1ccccc1Cl)Nc1cccc(S(=O)(=O)NC2=NCCCCC2)c1,-6%,-26%
CC(=O)NC(CCS(C)(=O)=O)C(=O)Nc1cccc(C(C)=O)c1 (centres undefined),-13%,-5%
CC(C)C[C@@H](CNCC(=O)[C@H](CC(C)C)NC(=O)c1[nH]cnc1C(=O)N[C@@H](C)CN)NC(=O)c1nc[nH]c1C(=O)N[C@@H](C)C(=O)O,-12%,0%
COc1ccccc1C(CNC(=O)CNC(=O)c1ccc(Cl)c(Cl)c1)N1CCCC1 (centres undefined),i,-5%
Cc1cccc(CN2CCN(CC(=O)NCc3cccs3)C2=O)c1,-17%,u
CCc1nnc(NC(=O)c2nc3nc(C)cc(C)n3n2)s1,-13%,-3%
CCOc1ccc(N(CC(=O)NCc2ccco2)S(C)(=O)=O)cc1,-15%,-11%
COc1ccc(C)cc1NC(=O)c1cc2c(CO)cnc(C)c2oc1=N,2%,-13%
CCOP(=O)(OCC)C(O)c1ccc(Br)cc1 (centres undefined),i,-4%
CN1C(N)=NC(=O)/C1=C/c1ccccc1F,i,1%
COC(=O)c1ccc(-c2ccc(Cl)cc2)nc1C,i,2%
CCn1c(COc2ccc(C)cc2)nnc1SCC(=O)Nc1ccc(S(N)(=O)=O)cc1,x,-15%
CCN(CC)CCOC(=O)c1ccc(N/C=C(/C#N)c2nc(-c3cc4ccccc4oc3=O)cs2)cc1,i,-11%
COc1ccc(NC(=O)CN(C)C(=O)CSCC(=O)Nc2ccc(C)cc2)cc1,-15%,-12%
CCc1ccc2c(O)c3c(cc2c1C(=O)OC)C(=O)c1c(O)ccc(O)c1C3=O,-4%,3%
CCOC(=O)c1c(C)oc2c1c(C=NCc1ccccn1)c(O)c1ccccc12,-4%,-10%
O=C(Cn1cnnn1)Nc1cccc(S(=O)(=O)N2CCCCC2)c1,3%,-13%
Cc1ccc([C@H]2C[C@@H](O)[C@H](n3cc(COC(=O)c4ccccc4)nn3)CN2C(=O)C2CCCCC2)cc1,i,-25%
C[N+]1(CC(=O)c2cccs2)CCOCC1,i,-12%
COc1ccc(OC)c(NC(=O)CN2C(=O)COc3ccc(S(=O)(=O)N4CCCC4)cc32)c1,i,-3%
COc1ccc(C2Nc3ccc(Br)cc3C(c3ccccc3)N2CC(=O)O)cc1 (centres undefined),i,-6%
Cc1cc(OCC(=O)N(Cc2ccco2)C2CCS(=O)(=O)C2)cc(C)c1Cl (centres undefined),-17%,-12%
c1ccc(-c2csc(Nc3ccc4c(c3)OCCO4)n2)cc1,-17%,-20%
CCn1ccc2cc(S(=O)(=O)N3CCC(C(=O)NCCc4ccc(SC)cc4)CC3)ccc21,-24%,-14%
CCOc1nc(NCCO)nc(Nc2ccc([N+](=O)[O-])cc2)n1,-20%,-10%
Cc1ccc(S(=O)(=O)N2CCOCC2)cc1NC(=O)COC(=O)CNC(=O)c1ccc(Cl)cc1Cl,i,-12%
CCc1nc2ccc(C(=O)NCc3ccccc3OC)cn2c1N(CC)Cc1cccc(Br)c1,9%,-8%
CNC(=S)NNC(=O)c1cccn(Cc2ccccc2)c1=O,i,-10%
O=C(NCC1CC1)c1cc2c(c(-c3cccc(-c4ccccc4F)c3)n1)[C@@H](CCO)N(C(=O)CC1CC1)C2,-16%,-5%
O=C(O)/C=C/C(=O)Nc1nccs1,-7%,7%
CCOP(=O)(OCC)C(NC(=O)CN1C(=O)c2ccccc2S1(=O)=O)C(Cl)(Cl)Cl (centres undefined),-16%,-8%
CCn1c(SCc2c(Cl)cccc2Cl)nnc1-c1nn(-c2ccccc2)ccc1=O,x,-19%
Cc1ccccc1NC(=O)Cn1cc(S(=O)(=O)N2CCCC2)c(S(=O)(=O)N2CCCC2)c1,-11%,-3%
CC(C)(C)C(=O)Cn1ncc(N2CCCC2)c(Br)c1=O,x,2%
O=C(C1CCCCC1)N1CCN(C(=O)C2CCCCC2)CC1,i,-7%
COc1cccc(C2=CC(=O)C[C@H](c3ccc4c(c3)OCO4)C2)c1OC,i,0%
COc1ccc(NC(=O)CN(Cc2ccccc2)S(=O)(=O)c2ccc3nc(C)sc3c2)cc1,-7%,-4%
Cc1cc(OC(=O)c2cccc(C(F)(F)F)c2)c([N+](=O)[O-])c(=O)[nH]1,i,-10%
COc1ccc(CNC(=O)CN(C)Cc2ccc(SC)cc2)cc1,3%,1%
CCCOc1ccc(N)cc1N,x,1%
Cc1cc(C)cc(NC(=O)CCc2c(C)nc3c(c2C)c(=O)n(C)c(=O)n3C)c1,4%,-5%
CCOC(=O)CNC(=O)CSc1nc(NCc2ccccc2)nc(N(C)C)n1,x,3%
Cc1ccc(N/N=C2\COC(C)(C)CC2=O)cc1,i,0%
Cc1ccccc1CNC(=O)c1ccccc1,i,-18%

# Screening results: PubChem, National Center for Advancing Translational Sciences (NCATS)
